AF4-AF9 inh: blocks AF4 peptide binding to human AF9; AID 651704; inhibition, % at 10 µM; AlphaScreen, biotin-AF4 peptide binding to FLAG-AF9; 0.47% of 350,000 active; P42568;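 active means every replicate reaching a set inhibition limit, whatever the replicate mean, cut at about 25% in these data; inconclusive means mean inhibition reaches that limit but some replicates miss it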;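 further: 0% = plate neutral control median and 100% = total signal loss; the record names both 10 and 1 µM as test concentration; the first replicate is given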
Target sequence (P42568 whole entry, looked up): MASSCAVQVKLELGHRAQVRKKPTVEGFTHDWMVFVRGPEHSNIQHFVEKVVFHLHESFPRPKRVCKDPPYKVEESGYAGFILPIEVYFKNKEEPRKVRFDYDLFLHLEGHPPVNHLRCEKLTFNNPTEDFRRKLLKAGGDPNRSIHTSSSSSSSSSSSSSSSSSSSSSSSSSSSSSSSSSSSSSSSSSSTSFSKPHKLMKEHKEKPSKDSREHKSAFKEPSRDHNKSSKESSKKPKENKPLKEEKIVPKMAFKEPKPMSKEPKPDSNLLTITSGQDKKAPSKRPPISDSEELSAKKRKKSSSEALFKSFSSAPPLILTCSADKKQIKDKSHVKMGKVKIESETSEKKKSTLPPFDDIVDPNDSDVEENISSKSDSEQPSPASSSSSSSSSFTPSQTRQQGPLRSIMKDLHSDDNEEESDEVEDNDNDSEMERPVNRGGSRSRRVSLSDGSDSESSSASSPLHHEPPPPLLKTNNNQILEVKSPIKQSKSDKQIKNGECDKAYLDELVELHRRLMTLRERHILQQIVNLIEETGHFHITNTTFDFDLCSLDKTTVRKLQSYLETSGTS
HNF4A DNA FP: change in binding of human HNF4 alpha to DNA. 0.3% of 360,000 active. HNF4a-FITC DNA binding, fluorescence polarization, 1 h. P41235. activity change, % at 10 µM; in the data active means activity change above about 30%, passing the limit was not always enough;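 further: controls were the assay level and a saturating level of protein; the project sought stronger binding though the title names inhibitors; some compounds called inactive have numbers as strong as hits; positive values seem to mean higher polarization but the record does not say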
Vif TR-FRET: HIV-1 Vif–A3G interaction blockers – biochemical, TR-FRET, GST-Vif 1-94, biotin-A3G peptide, dose response retest, primary screen (AID 1117319) | TR-FRET GST-Vif / biotin-A3G peptide binding; higher % means a stronger effect; test concentration not given here; strong numbers were not always called active | inhibition, %, or IC50 in µM where a hit was titrated | 0.57% of 260,000 active;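 active means above the screen mean plus three standard deviations and confirmed in dose response; inconclusive means results disagree or hit not tested in dose response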;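 further: Vif residues 1-94 fused to GST binding biotinylated APOBEC3G peptide 110-148; 0% = full assay without inhibitor and 100% = GST in place of GST-Vif; retest series ran down from 100 µM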
FGF22 binding: binders of recombinant human FGF22 by thermal shift; 1.5% of 340,000 active; AID 651658; SYPRO orange fluorescence; percent of sucrose octasulfate shift, DMSO zero; calls only at 9.99 µM;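 active means melting point raised past a set limit in the mean and every replicate; inconclusive means no clear call; three in four hits are not shown here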
Target sequence (Q9HCT0 whole entry, looked up): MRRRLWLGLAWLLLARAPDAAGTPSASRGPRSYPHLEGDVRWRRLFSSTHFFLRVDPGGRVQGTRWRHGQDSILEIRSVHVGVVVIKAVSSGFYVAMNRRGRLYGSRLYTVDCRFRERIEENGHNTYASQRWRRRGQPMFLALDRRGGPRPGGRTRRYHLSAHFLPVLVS
ALR inh: inhibitors of human sulfhydryl oxidase ALR; 3.8% of 290,000 active; purified ALR, DTT oxidation, H2O2 HRP-luminol luminescence; inhibition, % (test concentration not listed); AID 485317;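 active means mean and each replicate at 75% or more; inconclusive means only one of the two met; inactive means neither met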;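 further: stock transfer was 7.5 nL into about 7.5 µL; 0% = neutral wells and 100% = wells with inactivated enzyme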
Target sequence (P55789 whole entry, looked up): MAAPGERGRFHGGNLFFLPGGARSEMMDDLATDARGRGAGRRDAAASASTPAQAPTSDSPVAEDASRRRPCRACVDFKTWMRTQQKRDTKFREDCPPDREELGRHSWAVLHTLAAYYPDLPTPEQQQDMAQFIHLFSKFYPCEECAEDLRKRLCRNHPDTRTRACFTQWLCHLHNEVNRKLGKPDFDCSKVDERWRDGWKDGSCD
Ecoli rRNA inh: inhibitors of bacterial rRNA selective over humanized ribosomes; E. coli WT GFP vs humanized-ribosome RFP mutants, fluorescence, 24 h; hits give low values; DMSO median 0, no signal -100; GFP signal change (wild-type ribosome), % (no concentration beside the values); 1.6% of 350,000 active;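 active means significant combined selectivity score with lowered wild-type GFP, culture density cut under 30%, mutant RFP and density less affected; inactive means any of these conditions unmet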; further: one replicate is shown; some compounds called inactive have numbers as strong as hits
Ecoli growth: blocks Escherichia coli growth | OD600, 23 h; hits give low values | OD600 absorbance (concentration not given with the values) | 0.21% of 330,000 active | AID 1053175;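 active means OD600 absorbance below the run mean of sample wells minus 3.6 SD, in any replicate, cut at about 0.56 in these data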;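 further: stock transfer was 300 nL into about 60 µL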
Ecoli rRNA inh OD600: also measured in Ecoli rRNA inh; calls as there; OD600 change, %; measured here: OD600 growth;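 optical density of the mix in the first replicate; 0 = DMSO median and -100 = no signal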
Ecoli rRNA inh RFP: further read-out of Ecoli rRNA inh, marked with its call; RFP signal change, %; measured here: RFP humanized mutant strains;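 first replicate; 0 = DMSO median and -100 = no signal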
Active calls of the source: *; i = inactive; ? = inconclusive; / = no result given. This is a subset, so the mix of outcomes need not match the whole.

SMILES	AF4-AF9 inh	HNF4A DNA FP	Vif TR-FRET	FGF22 binding	ALR inh	Ecoli rRNA inh	Ecoli rRNA inh OD600	Ecoli rRNA inh RFP	Ecoli growth
C[C@@H]1CN([C@H](C)CO)C(=O)c2cc(/C=C/c3ccccc3)cnc2O[C@@H]1CN(C)C	2.3	/	/	i	/	4	3	-1.6	/
Cc1ccc(-c2nc3cc(C)c(Br)c(C)n3c2Cc2cccc(F)c2)cc1	0.3	-0.3	/	i	/	10	0	0.4	/
Cc1cccc(S(=O)(=O)N[C@H]2CC[C@H](CCn3cc(-c4ccccn4)nn3)O[C@H]2CO)c1	0.6	/	/	i	/	-3	-1	0.5	/
Cc1ccc(C(=O)Nc2ccccc2C(=O)O)cc1S(=O)(=O)Nc1ccc(Br)cc1	-1.8	-7.5	/	i	98*	-36*	-25*	-5.6*	0.68
O=C(CSc1n[nH]c(-c2ccc(Br)cc2)n1)N1CCOCC1	-3.3	1.4	3%	i	15	-1	-10	0.8	0.64
O=C(CNC(=O)c1cccc(F)c1)OCCOc1cccc(Cl)c1	-2.6	1.2	3%	/	/	-20	-18	-2.9	0.6
CCCN(C)C[C@H]1Oc2cc(-c3ccccc3)ccc2S(=O)(=O)N([C@H](C)CO)C[C@H]1C	-0.1	/	/	i	/	-2	-2	2.0	/
O=C(O)c1ccc(CNCc2cccc(Cl)c2Cl)cc1	/	-0.8	-1%	/	/	/	/	/	0.72
NS(=O)(=O)c1ccc(N=Nc2c(O)ccc3ccccc23)cc1	3.4	2.4	10%	/	-19	2	5	3.6	0.69
CCc1ccc(N2CC(C(=O)OCC(=O)Nc3ccc([N+](=O)[O-])cc3)CC2=O)cc1 (centres undefined)	1.0	-0.3	-7%	i	1	-12	-9	0.6	0.69
Cc1cc(Cl)c(S(=O)(=O)N(C)C)cc1OCC(N)=O	/	0.2	11%	/	-4	/	/	/	0.68
CC1(C(=O)NS(=O)(=O)c2cccc(F)c2)CCN1C(=O)Cc1cc(F)ccc1F (centres undefined)	-2.9	-0.7	/	i	/	8	16	1.5	/
Cc1ccc(Nc2nc3ccccc3[nH]2)nc1	/	0.3	7%	/	-7	/	/	/	0.56
C[C@@H]1CCCCO[C@H](CN(C)S(=O)(=O)c2ccccc2)[C@H](C)CN([C@@H](C)CO)C(=O)c2cc(NC(=O)Nc3ccccc3)ccc2O1	-0.3	/	/	i	/	-3	2	-2.4	/
COc1ccc(-c2csc(C(C)(O)c3cccc(F)c3)n2)cn1 (centres undefined)	0.4	-1.9	/	i	/	-22	-49	-7.8	/
CCCCNC(=O)C1(C)CCN1C(=O)c1csnn1 (centres undefined)	2.2	1.1	/	i	/	19	31	0.3	/
Cc1nc2sccn2c(=O)c1S(=O)(=O)Nc1ccc(N2CCN(S(C)(=O)=O)CC2)cc1	1.4	2.9	/	i	25	3	9	0.6	0.69
CCCC(=O)N1CC(=O)Nc2ccc(Br)cc2C1c1ccc(F)cc1 (centres undefined)	-13	-2.5	-2%	i	-29	6	7	-0.2	0.63
O=c1cc(NS(=O)(=O)c2ccccc2)nc(SCc2ccc(Cl)cc2)[nH]1	/	0.3	3%	/	1	/	/	/	0.65
CC(=O)Nc1ccc(C2Nc3ccccc3C(=O)N2C2CCCCC2)cc1 (centres undefined)	/	2.6	2%	/	-6	1	9	-0.3	0.73
COCCNC(=O)C[C@@H]1C[C@@H]2c3cc(NC(=O)CN(C)C)ccc3O[C@@H]2[C@@H](CO)O1	-4.1	/	/	i	/	1	5	-0.2	/
Cc1nc2ccc(Cl)cn2c1C(=O)NN	0.1	-0.8	16%	i	21	7	3	4.5	0.69
CSc1ccc(/C=C/C(=O)N2CCCN(C)CC2)cc1	1.5	3.7	0%	/	99*	12	13	2.8	0.67
COc1ccc(-c2cn3nc(SCC(=O)NC4CCCCC4)ccc3n2)cc1	-1.1	4.7	/	i	-4	8	15	-0.4	/
CCN1C(=S)N[C@@H](c2ccccc2)C(C(=O)OC)=C1C	-0.4	0.8	/	i	1	-13	-6	-6.2	/
New compounds follow.
SMILES	AF4-AF9 inh	HNF4A DNA FP	Vif TR-FRET	FGF22 binding	ALR inh	Ecoli rRNA inh	Ecoli rRNA inh OD600	Ecoli rRNA inh RFP	Ecoli growth
CCOc1ncccc1C(=O)Nc1ccccc1N1CCOCC1	-1.5	1.6	1%	i	-2	-22	-29	-3.1	0.69
CN(C)C(=O)C[C@@H]1C=C[C@@H](NC(=O)NC2CCCCC2)[C@@H](CO)O1	0.3	/	/	i	/	1	1	-0.1	/
COCCNC(=O)C[C@@H]1C=C[C@@H](NC(=O)NC2CCCCC2)[C@@H](CO)O1	-1.1	/	/	i	/	1	5	-1.8	/
COc1ccc2[nH]c3c(=O)n(CCc4ccccc4)cnc3c2c1	-2.3	5.4	-5%	i	/	6	3	1.2	0.75
O=C(Oc1c(CN2CCOCC2)cc(Cl)c2cccnc12)c1ccc(F)cc1	/	5.4	17%	/	4	/	/	/	0.65
COc1ccc(N(C)S(=O)(=O)c2cccc(C(=O)Nc3ccc(-n4cnnn4)cc3)c2)cc1	/	1.9	14%	/	/	/	/	/	0.72
O=[N+]([O-])c1cc(C(F)(F)F)ccc1-n1nnc2ccccc21	/	-0.6	/	/	-119	/	/	/	0.64
CCOc1ccc(CNC23CN4CN(CN(C4)C2)C3)cc1	2.5	0.1	?	i	-4	6	-4	-0.1	0.66
C[C@@H]1CN([C@H](C)CO)C(=O)c2cccc(NC(=O)Nc3ccc(F)cc3)c2O[C@@H]1CN(C)C(=O)Nc1ccc(F)cc1	0.1	/	/	i	/	-6	-5	-1.6	/
O=C(N=Nc1c(O)[nH]c2ccccc12)Nc1ccccc1	4.1	-0.4	-4%	i	/	-10	-9	-4.6	/
Cc1ccc(Nc2nnc(SCC(=O)c3ccc(O)cc3O)s2)cc1	1.9	3.9	0%	i	3	-23	-36	2.7	0.62
CN(CC(=O)O)S(=O)(=O)c1ccc2c(c1)NC(=O)CC(=O)N2	-1.6	-1.3	-1%	i	0	14	6	1.0	0.69
Cc1nn(-c2ccccc2)c(C)c1/C=N/n1cnnc1	7.4	-1.7	-2%	i	/	20	15	4.7	/
COc1ccccc1N1CCN(CCCCNC(=O)c2ccc3ccccc3c2)CC1	5.7	3.7	/	i	-2	/	/	/	0.65
Cc1ccc(CNC(=O)CSCc2cccc(F)c2)cc1	-0.8	6.0	2%	i	11	/	/	/	0.69
C=CCn1c(CSCc2ccc(Cl)cc2Cl)nnc1SCC(=O)Nc1ccc(C(=O)O)cc1	-7.2	6.3	10%	i	8	-9	-5	1.1	0.72
O=[N+]([O-])c1ccc(-c2nn(-c3ccccc3)cc2/C=N/n2c(-c3ccncc3)n[nH]c2=S)cc1	-0.2	-16	-3%	i	-6	1	-16	-0.8	/
O=C(NN=C1C2CC3CC1CC(Cl)(C3)C2)c1cccs1	0.4	3.5	/	i	33	2	4	-0.6	0.68
Cc1noc(C)c1S(=O)(=O)Nc1ccc2c(c1)C(=O)N([C@@H](C)CO)C[C@@H](C)[C@@H](CN(C)S(=O)(=O)c1ccccc1)O2	0.0	/	/	i	/	0	-8	-1.7	/
O=C(c1ccc2c(=O)n3c(nc2c1)CCCCC3)N1CCN(c2ccc(F)cc2)CC1	-3.9	1.7	-5%	i	28	-8	-5	-11	0.66
Cc1ccccc1NC(=O)c1cnn(-c2ccccc2)c1NC(=O)c1ccco1	-18	-4.1	-4%	i	0	-1	3	6.2	0.68
O=C(/C=C/c1c[nH]c2ccccc12)c1ccccc1	/	8.1	/	/	-16	/	/	/	0.63
CCCCN(C)Cc1cc(=O)oc2ccc3ccccc3c12	9.2	5.4	-11%	i	-27	-9	-28	-2.7	0.64
CC[C@]12c3[nH]c4cc(-c5ccco5)ccc4c3CCN1C(=O)[C@@H](CC(=O)NCCCn1ccnc1)C[C@@H]2C(=O)N1CCN(C(=O)c2ccco2)CC1	14	-0.1	0%	i	/	3	3	4.5	0.71
O=C(NNC(=O)c1ccc2ccccc2c1)Nc1ccc(F)cc1	-1.6	-0.7	0%	i	1	1	12	-1.5	0.71

Arranged by SMILES length (smallest number first): 3 of the compounds above
SMILES	AF4-AF9 inh	HNF4A DNA FP	Vif TR-FRET	FGF22 binding	ALR inh	Ecoli rRNA inh	Ecoli rRNA inh OD600	Ecoli rRNA inh RFP	Ecoli growth
COc1ccc2[nH]c3c(=O)n(CCc4ccccc4)cnc3c2c1	-2.3	5.4	-5%	i	/	6	3	1.2	0.75
C=CCn1c(CSCc2ccc(Cl)cc2Cl)nnc1SCC(=O)Nc1ccc(C(=O)O)cc1	-7.2	6.3	10%	i	8	-9	-5	1.1	0.72
Cc1noc(C)c1S(=O)(=O)Nc1ccc2c(c1)C(=O)N([C@@H](C)CO)C[C@@H](C)[C@@H](CN(C)S(=O)(=O)c1ccccc1)O2	0.0	/	/	i	/	0	-8	-1.7	/

(list continues)
SMILES	AF4-AF9 inh	HNF4A DNA FP	Vif TR-FRET	FGF22 binding	ALR inh	Ecoli rRNA inh	Ecoli rRNA inh OD600	Ecoli rRNA inh RFP	Ecoli growth
CC(=O)NCc1ccc(S(=O)(=O)N/N=C/c2ccccc2)cc1	0.2	-1.8	13%	i	-1	4	7	-0.6	/
CCn1cc(C(=O)O)c(=O)c2cnc(N3CCN(C(=S)Nc4ccccc4C(F)(F)F)CC3)nc21	6.3	-0.5	-6%	i	-8	-49	-74	-24	0.54
CC(=O)c1ccc(-n2c(C)c(C(C)=O)c3cc(O)ccc32)cc1	2.3	-1.4	/	i	-15	4	5	-2.9	0.67
Cn1c(SCC(=O)Nc2ccc(F)cc2)nc2c([nH]c3ccccc32)c1=O	3.8	-2.0	-12%	i	-3	6	17	0.0	0.76
O=C(Nc1nc2ccccc2s1)c1ccc([N+](=O)[O-])o1	-3.3	2.7	-3%	i	-5	10	15	2.4	0.66
COc1ccc(O)c(/C=N/NC(=O)c2ccc(CSc3nc(C)cc(C)n3)cc2)c1	3.2	-4.3	/	i	-3	/	/	/	/
Cc1ccc(S(=O)(=O)NC(=O)NCc2ccccn2)cc1	-2.3	-1.5	11%	i	-5	3	7	-3.5	0.67
N#Cc1ccc(Cl)cc1NC(=O)COC(=O)c1ccc(S(=O)(=O)N2CCCC2)cc1	/	0.4	-46%	/	3	/	/	/	0.76
CCc1cccc(NC(=O)COC(=O)C2CCN(c3ccc(C(F)(F)F)cn3)CC2)c1	0.7	3.1	-15%	i	-1	-8	-2	-1.9	0.65
COc1cc(CN2CCC(Oc3cc(C(=O)NC4CC4)ccc3OC)CC2)cc(OC)c1	-1.8	-3.3	/	i	3	11	2	3.5	0.67
O=C(NC(=O)c1c(F)cccc1F)Nc1cccc(Oc2ncc(Cl)cn2)c1	-3.1	4.3	/	i	/	9	14	3.6	/
OC(CCCN1CCC(O)(c2ccc(Cl)cc2)CC1)c1ccc(F)cc1 (centres undefined)	1.7	0.0	-5%	i	-10	13	1	1.2	0.65
N#C[C@@H]1[C@H](c2ccc(C3=CCCCC3)cc2)[C@H](CO)N1C(=O)Nc1ccccc1F	0.8	/	/	i	/	-3	-25	-2.2	/
CCCCNS(=O)(=O)c1ccc2nc(SCC(=O)Nc3sccc3C#N)[nH]c2c1	/	4.0	0%	/	-3	/	/	/	0.69
COC(=O)c1ccc(C2NC(C(=O)O)CS2)cc1 (centres undefined)	/	2.3	5%	/	69	/	/	/	0.71
CC[C@]1(C(=O)OC)[C@H]2C(=O)N(C)C(=O)[C@H]2[C@H]2CN(C)C(=NC3CCCCC3)N21	-3.3	-1.2	1%	/	/	0	12	-6.5	0.69
CCOC(=O)c1ccccc1NC(=O)CSc1nnc(C(C)C)n1CC	/	-1.0	2%	/	-7	/	/	/	0.75
CCOC(=O)c1c(NC(=O)CSc2nc3ccccc3o2)sc(C(C)=O)c1C	/	22	-25%	/	13	/	/	/	0.69

Compound activity (PubChem BioAssay)
